D2 ag = agonists of human D2 dopamine receptor (beta-arrestin); activation, % (no concentration beside the values); DiscoveRx PathHunter D2 beta-arrestin, luminescence, 90 min; 100% = 57 uM dopamine signal; 0.084% of 360,000 active; in the data active = activation above about 40%; inconclusive = about 15% to 40%; inactive = below about 15%; note: compound concentration not given in the record; the text of the record calls up to 30% inactive
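Agonist mode: compounds alone added to overnight-plated D2 PathHunter cells for 90 min at 37 C, with 57 uM final dopamine (EC100) defining full response. Beta-arrestin recruitment detected by chemiluminescent reagent, read after 1 h at ambient temperature.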
Six1-Eya2 inh = blocks human Six1 binding to Eya2; activity change, % (no concentration beside the values); AlphaScreen GST-Six1/His-Eya2 binding, biochemical; hits give low values; control for the full effect not named in the record; 0.56% of 360,000 active; AID 651725; Q15475+O00167; in the data active = activity change below about -65%; inconclusive = about -30% to -65%; inactive = above about -30%; note: % is set by controls: 0 for no effect and ±100 for the full control effect; compound concentration not given in the record
Target sequence (O00167 whole entry, looked up): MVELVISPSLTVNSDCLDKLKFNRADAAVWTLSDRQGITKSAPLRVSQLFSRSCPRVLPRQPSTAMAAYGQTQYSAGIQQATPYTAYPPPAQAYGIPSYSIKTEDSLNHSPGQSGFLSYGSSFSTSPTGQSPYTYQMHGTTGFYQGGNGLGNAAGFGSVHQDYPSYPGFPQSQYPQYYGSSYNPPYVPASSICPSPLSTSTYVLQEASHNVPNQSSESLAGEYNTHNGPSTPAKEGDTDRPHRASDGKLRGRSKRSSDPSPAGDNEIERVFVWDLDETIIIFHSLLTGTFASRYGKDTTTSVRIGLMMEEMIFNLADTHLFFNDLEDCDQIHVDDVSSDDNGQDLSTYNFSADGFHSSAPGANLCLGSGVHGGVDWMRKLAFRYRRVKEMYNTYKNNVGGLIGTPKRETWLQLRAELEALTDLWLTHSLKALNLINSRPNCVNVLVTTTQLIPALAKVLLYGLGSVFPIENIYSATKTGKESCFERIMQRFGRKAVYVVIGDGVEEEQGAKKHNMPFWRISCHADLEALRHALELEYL
Target sequence (Q15475 whole entry, looked up): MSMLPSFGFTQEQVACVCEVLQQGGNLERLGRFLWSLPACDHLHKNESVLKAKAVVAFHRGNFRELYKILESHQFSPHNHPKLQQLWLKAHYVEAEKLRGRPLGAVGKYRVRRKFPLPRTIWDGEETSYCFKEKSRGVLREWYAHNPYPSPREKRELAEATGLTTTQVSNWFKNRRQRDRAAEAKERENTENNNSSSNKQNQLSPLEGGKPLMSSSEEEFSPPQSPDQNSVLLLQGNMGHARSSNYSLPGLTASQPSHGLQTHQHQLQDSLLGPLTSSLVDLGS
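Compounds are tested against tagged Six1 and Eya2 proteins bridged by glutathione donor and nickel acceptor beads; after a one-hour incubation at 37 °C without light, AlphaScreen emission is recorded.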
Sfp inh = inhibitors of Bacillus subtilis Sfp phosphopantetheinyl transferase; Q9F4F7; Biochemical Sfp PPTase activity, qHTS; Potency, µM, inactives show max response, negative = inhibition, most hits filed as inhibitors; 3.5% of 310,000 active; AID 1490; active = well fitted inhibition curve with a large enough effect; inconclusive = small, poorly fitted or top-dose-only effect, or another doubt; inactive = no such curve, though single readings can be large or run the other way;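 note: the enzyme is Sfp with the accession as filed and its product quenches rhodamine fluorescence; potency is the fitted concentration of half-maximal effect; 0% = enzyme reaction without inhibitor and -100% = no enzyme wells; top concentration of the series not given in the record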
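After 15 min at room temperature with compound, 15 nM Sfp received 5 uM rhodamine-CoA plus 12.5 uM BHQ-2-ybbR (50 mM Hepes pH 7.6, 10 mM MgCl2). Rate came from the fluorescence difference over 30 min, ex 525/em 598 nm.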
D2 PAM = potentiates the human D2 dopamine receptor allosterically; P14416; DiscoveRx D2 beta-arrestin cells, luminescence, 90 min; 100% = 57 uM dopamine signal; potentiation, % (test concentration not listed); 0.23% of 360,000 active; AID 624464; active = potentiation of 50% or more; inconclusive = 30% to 50%; inactive = 30% or less;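 note: compound concentration not given in the record; tested on top of an EC20 dose of dopamine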
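PathHunter beta-arrestin assay in DiscoveRx D2 cells. Compounds were added with an EC20 of dopamine (50 nM final) for 90 min at 37 deg C. Luminescence was read 1 h after detection reagent, with 57 uM dopamine as the EC100 control.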
CtBP-E1A inh = CtBP/E1A binding inhibition. AlphaScreen GST-E1A/His-CtBP binding, 1536-well; hits give low values; control for the full effect not named in the record. activity change, % (concentration not given with the values). 0.49% of 340,000 active. AID 651724; in the data active means activity change below about -65%; inconclusive means about -30% to -65%; inactive means above about -30%; note: % is set by controls: 0 for no effect and ±100 for the full control effect
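AlphaScreen with 125 nM GST-E1A and 125 nM His-CtBP (5X stocks) in Tris pH 8.0, 300 mM NaCl, BSA, Tween 20, TCEP. Compounds preincubated 2 h at 37 deg C, then glutathione donor/nickel acceptor beads added for 1 h at 37 deg C in dark.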
TRPV1 PAM = enhances activation of the human vanilloid receptor TRPV1 | TRPV1-expressing cells, Fluo-8 calcium influx, capsaicin EC20 potentiation; host cell line not named in the record; control for the full effect not named in the record | potentiation, % at 8.33 µM | 0.02% of 320,000 active | AID 540277; active means potentiation above 80%; inconclusive means 30% to 80%; inactive means below 30%; note: 0% is about no effect
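TRPV1-expressing cells were cultured overnight at 35.5C and loaded with Fluo-8 calcium dye for 40 to 90 min at room temperature. After a 10 s baseline, compound was added and calcium influx was read kinetically for 3 min (ex 480/em 520 nm).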
PINK1 modulator = changes PINK1 expression | PINK1 immunofluorescence, high-content cytometry, 24 h | Potency, µM (top dose mostly 76.6 µM), for the others: top-dose activation (PINK1 increase), most hits filed as activators | 0.2% of 410,000 active | AID 624263; active = well fitted activation curve with a large enough effect; inconclusive = small, poorly fitted or top-dose-only effect; inactive = flat fitted curve, though single readings scatter; cell line not stated here;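 note: potency is the fitted concentration of half-maximal effect; % of control where 0% means no effect; nearly all actives have a fitted effect of over 65% in size; a mitochondrial uncoupler was the plate control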
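PINK1 protein, normally rapidly degraded, was detected by immunofluorescence after 24 hour compound treatment of a stable cell line. Titration data (5 concentrations) came from laser-scanning cytometry, with CCCP-treated wells as controls.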
* marks the source's active call; other numbers are inactive results; u = inconclusive; x = no result given; [ ] = dose if it differs, or a comment.

Values run as follows: D2 ag, Six1-Eya2 inh, Sfp inh, D2 PAM, CtBP-E1A inh, TRPV1 PAM, PINK1 modulator
- Cc1cc(C)n(-c2ccc(C(=O)OCC(=O)Nc3ccc(S(=O)(=O)N4CCOCC4)cc3)cc2)n1
→ -1.2, -6.2, 9.2%, -18.7, 5.7, 15.3, -3.9%
- Cc1ccnc(NC(=O)C2CCCN(S(=O)(=O)c3cnc[nH]3)C2)c1 (stereo not given)
→ -8.8, 2.5, 10.0%, -4.4, -0.5, -8.6, 0.4%
- CCCC1(C2CCCC2)NC(=O)NC1=O (stereo not given)
→ -1.3, 2.3, x, -3.7, 15.0, x, 0.8%
- CC(NC(=O)COC(=O)CCc1ccc(S(=O)(=O)N2CCOCC2)cc1)C1CC2CCC1C2 (stereo not given)
→ -0.8, 5.7, 12.6%, 1.9, 8.4, 18.5, 1.2%
- COc1ccc(C(C(=O)NC(C)(C)C)N(C(=O)CCC(=O)Nc2cc(C)on2)c2cccc(F)c2)cc1 (stereo not given)
→ 0.6, 0.7, 10.1%, 7.3, -1.2, 3.8, 19.7%
- O=C(Nc1ccc(N2CCOCC2)c(S(=O)(=O)Nc2ccccc2Cl)c1)c1ccc(=O)[nH]n1
→ 2.0, -24.4, x, -3.4, 0.4, x, 0.1%
- CN(C(N)=S)c1ccccc1
→ -1.8, 9.9, 16.3%, 13.0, -2.4, u, 2.6%
- Cc1cc(C)nc(Nc2n[nH]c(-c3ccccc3N)n2)n1
→ 7.0, -5.0, -20.5%, -9.3, -12.4, u, -0.5%
- COc1ccc(NC(=O)/C(C#N)=C/c2cccnc2)c(OC)c1
→ -1.0, -0.9, 0.4%, 5.3, -4.7, 0.5, 1.1%
- COc1cccc2cc(-c3cc(=O)oc4ccc(O)cc34)oc12
→ -3.1, 1.2, -5.6%, -4.7, x, -0.5, 7.6%
- CC[C@@]1(C(=O)OC)N[C@H](CN(C)C(=O)Nc2ccc(OC)cc2)[C@@H]2C(=O)N(Cc3ccccc3)C(=O)[C@@H]21
→ 1.3, -1.0, x, x, -15.2, x, -1.0%
- COc1ccc(-n2c(C)ccc2-c2ccccc2)cn1
→ -3.9, -7.1, 1.3%, -3.4, -11.1, 1.8, 2.0%
- CC(CC(=O)Nc1ccc2c(c1)c(=O)n(C)n2-c1ccc2ccccc2c1)C(F)(F)F (stereo not given)
→ -4.6, -2.5, x, -8.0, 6.9, x, 5.5%
- NC(=O)c1ccc(Oc2ncc(C(F)(F)F)cc2Cl)cc1
→ -1.0, 7.2, 9.3%, -10.3, 10.0, -30.9, -0.3%
- Cc1ccc(N(C(=O)c2csnn2)C(C(=O)NC2CCCC2)c2ccncc2)c(C)c1 (stereo not given)
→ -1.8, 5.8, 6.0%, -3.6, 3.7, -1.7, 1.5%
- O=C(CSC(=S)N1CCN(c2ccccc2)CC1)Nc1nc(-c2ccccc2)c(-c2ccccc2)o1
→ 0.4, 13.6, 5.8%, -0.4, 0.0, -0.7, 0.1%
- COCc1cc(=O)[nH]c(-c2csc(C)n2)n1
→ -5.2, -24.0, u, -5.8, -14.5, u, 1.3%
- CCc1ccc(NC(=O)/C(C#N)=C/c2ccncc2)cc1
→ 10.9, 0.0, 15.1%, -25.4, -14.7, 17.5, 1.0%
- Cc1nc2oc3c(NCc4ccccc4)ncnc3c2c2c1COC(C)(C)C2
→ 1.1, 1.5, -6.3%, 0.6, -6.8, 15.2, x
- CSc1ccc(/C=C/C(=O)NC(=O)c2ccccc2O)cc1
→ -1.1, -20.0, -8.2%, -5.2, u, 8.3, -2.5%

Values run as follows: D2 ag, Six1-Eya2 inh, Sfp inh, D2 PAM, CtBP-E1A inh, TRPV1 PAM, PINK1 modulator
- Cc1ccc2c(c1)C(c1ccc(F)cc1)N(C(=O)c1cc3ccccc3oc1=O)CC(=O)N2 (stereo not given)
→ 2.7, -4.4, u, -1.1, -0.8, -20.8, 3.0%
- COc1ccc(N(CC(=O)NCCSc2ccccc2)S(=O)(=O)c2ccccc2)cc1OC
→ -2.3, 0.8, 26.8%, -9.8, -20.2, 4.0, -0.8%
- CC(C(=O)NCCc1ccc(F)cc1)N1CCN(Cc2ccccc2)CC1 (stereo not given)
→ 2.2, 5.5, -8.6%, -4.5, -0.8, -23.9, 1.2%
- Cc1ccc(-c2nc(NC(=O)CSc3nnnn3-c3ccccc3)ns2)cc1
→ -1.3, -10.8, u, 2.8, -0.3, 10.1, 0.5%
- O=C(COC(=O)c1ccc(O)cc1)Nc1ccc(OC(F)F)cc1
→ -0.7, -0.7, 18.3%, 1.3, 2.2, 2.4, 2.2%
- C/C(=C\C(=O)OCC(=O)NCc1ccccc1)C(=O)OCC(=O)NCc1ccccc1
→ -3.0, 2.2, -1.2%, -3.2, 0.6, 20.4, 1.1%
- Cc1ccc2ncnc(NCCC(=O)O)c2c1
→ 0.5, 1.1, 20.6%, -0.6, -2.5, -3.0, 0.1%[38.3 µM]
- O=S(=O)(Oc1ccccc1/C=N/n1cnnc1)c1ccccc1
→ -0.2, 3.4, 15.2%, -9.8, 9.3, 9.9, 4.5%
- COC(=O)c1cc2c(ccn2-c2ccc(F)cc2)n1Cc1ccc(OC)cc1
→ 4.1, -15.8, -2.7%, -6.2, -0.1, -3.3, 5.6%
- COc1cc(NC(=S)N2CCN(c3ccccn3)CC2)c(OC)cc1Cl
→ 7.3, -15.2, 10.0%, -3.5, -20.2, 13.6, 5.1%
- COc1ccc(OCc2nnc(SCC(N)=O)n2N)cc1
→ -3.8, 0.3, 14.3%, -2.0, 0.8, -3.9, -1.2%
- O=[N+]([O-])c1ccc(Oc2ccc(C(F)(F)F)cn2)cc1
→ -0.8, 2.7, 14.2%, -5.2, -1.7, 3.1, 2.2%
- O=C(CN1C(=O)NC2(CCOc3ccccc32)C1=O)c1ccc[nH]1 (stereo not given)
→ -3.2, 16.1, x, -7.9, 0.0, 6.5, 0.2%
- Cc1ccc(NC(=O)C(=O)NCCc2c[nH]c3ccccc23)cc1C
→ -0.9, -7.4, 24.8%, 1.4, 4.7, 4.9, 8.8%
- COc1ccc(Cc2n[nH]c(=S)n2-c2ccc3c(c2)OCCO3)cc1
→ 0.0, -1.1, -24.2%, -3.4, x, -0.3, 4.6%
- Nc1ccc(-c2cnc(-c3ccc(N)cc3)nc2)cc1
→ -2.7, -0.5, 4.9%, -10.1, -7.1, 3.9, -1.8%
- O=C(O)CC(c1ccccc1)N1C(=O)c2ccccc2C1=O (stereo not given)
→ -4.0, 15.9, x, -5.3, 7.9, x, 7.1%
- O=C1c2cccc3cccc(c23)C(=O)C1(O)O
→ -9.5, -13.2, x, -28.9, -2.5, x, 3.8%
- COc1ccc(Nc2cc3n(c(=O)n2)CCc2cc(OC)c(OC)cc2-3)cc1
→ 1.1, -78.5*, -10.0%, -4.4, u, 10.4, 3.2%
- COC(=O)CN1C(=O)CC(C)(C)Sc2ccccc21
→ -5.5, 0.3, 31.4%, 0.6, 3.5, -18.1, 1.3%

2 records drawn at random from the list so far:
Values run as follows: D2 ag, Six1-Eya2 inh, Sfp inh, D2 PAM, CtBP-E1A inh, TRPV1 PAM, PINK1 modulator
- CC(C(=O)NCCc1ccc(F)cc1)N1CCN(Cc2ccccc2)CC1 (stereo not given)
→ 2.2, 5.5, -8.6%, -4.5, -0.8, -23.9, 1.2%
- O=C(CN1C(=O)NC2(CCOc3ccccc32)C1=O)c1ccc[nH]1 (stereo not given)
→ -3.2, 16.1, x, -7.9, 0.0, 6.5, 0.2%

Later entries
Values run as follows: D2 ag, Six1-Eya2 inh, Sfp inh, D2 PAM, CtBP-E1A inh, TRPV1 PAM, PINK1 modulator
- CCOC(=O)N1CCN(C(=O)CS(=O)(=O)c2cn(Cc3ccc(Cl)cc3)c3ccccc23)CC1
→ -3.9, 6.6, 6.4%, 1.0, 5.1, -11.1, 2.9%
- COc1cccc(CN(C)C(=O)C2CCN(S(=O)(=O)c3ccc(C)cc3)CC2)c1OC
→ 3.7, 4.3, x, 20.0, -7.8, 9.2, -2.6%
- CCCC(c1nnnn1CCc1ccccc1)N1CCC(C(N)=O)CC1 (stereo not given)
→ -3.2, 7.7, 0.6%, -15.0, -1.7, 4.4, -0.3%
- O=C(COC(=O)CN1C(=O)C2CCCCC2C1=O)Nc1cc(F)ccc1F (stereo not given)
→ -4.7, 0.0, x, -27.8, 23.2, -2.9, 0.9%
- CN(Cc1ccco1)C(=O)c1ccc(OC2CCN(Cc3ccccn3)CC2)cc1
→ -4.4, -2.5, 0.7%, -12.0, -11.6, -19.5, 2.7%
- COc1ccc(CCNC(=O)NS(=O)(=O)c2ccc(C)cc2)cc1OC
→ 1.3, -2.3, 17.5%, -0.1, 3.2, 4.5, 0.6%
- CN(C1CCCCC1)S(=O)(=O)c1ccc(S(=O)(=O)N2CCN(C(=O)c3ccccc3F)CC2)cc1
→ -3.8, -0.7, 14.0%, -21.0, 1.8, 8.5, 1.4%
- O=C(COC(=O)c1cn(-c2ccccc2)nc1-c1ccc(F)cc1)Nc1ncc(Cl)cc1Cl
→ 3.3, 15.0, -2.0%, 0.9, 0.0, 2.6, 8.4%
- CCCCCCCCCC(=O)Nn1cnc2ccccc2c1=O
→ -5.0, -1.6, 17.8%, -3.0, x, 19.7, -0.7%
- COCCNC(=O)CSc1ccccc1C(=O)NCC1CCCCC1
→ -2.3, 6.4, 17.1%, -3.3, 0.9, 8.3, 0.0%
- Cc1cc(C)n(-c2nc3ccccc3c(=O)n2OCC(=O)Nc2c(C)cccc2C)n1
→ -3.5, 22.6, 9.8%, -8.0, 0.0, 0.9, 3.8%
- COc1ccccc1N1CCN(C(=O)Cn2nnc(-c3cccs3)n2)CC1
→ -0.1, -4.2, -0.6%, -19.5, 12.7, 1.3, -3.0%[38.3 µM]
- CC1=NN(C(=O)Cn2nc([N+](=O)[O-])cc2C)C(O)(C(F)(F)F)C1 (stereo not given)
→ -1.7, 9.9, 3.6%, -13.6, 6.0, 10.0, 4.4%
- CCCS(=O)(=O)NC(=O)C1(C)CCCN(C(=O)COCc2ccccc2)C1 (stereo not given)
→ -2.9, 0.1, x, -5.2, 4.0, x, -0.9%
- Cc1c(NC(=O)CSCc2ccccc2)cccc1C(=O)O
→ -0.8, 0.4, 17.0%, -2.0, x, 8.3, -0.7%

Assay outcomes: PubChem, National Center for Advancing Translational Sciences (NCATS)
